# Marburg entry inh = qHTS for inhibitors of binding or entry into cells for Marburg Virus. AID 540276, 2011. Marburg virus pseudotyped entry inhibition, cell reporter; control for the full effect not named in the record; about a third of the inactives were read at about 46 µM. 300,000 tested, 1.8% active. Potency, µM (titrated, usually from 37.8 µM), for inactives: at the top dose activity change, negative = inhibition, most hits filed as inhibitors; active = well fitted inhibition curve with a large enough effect; inconclusive = small, poorly fitted or top-dose-only effect, or effect the other way; inactive = flat fitted curve, though single readings scatter; tested in HEK293 cells; about a fifth of its hits are not listed in these tables; note: % is set by controls: 0 for no effect and ±100 for the full control effect; luciferase read-out
# RE007 growth inh = qHTS Assay for Inhibitors of the HIV-1 protein Vpr; S. pombe RE007 Vpr strain, BacTiter-Glo ATP luminescence, 24 h; control for the full effect not named in the record; Potency, µM (top dose mostly 92.2 µM), for inactives: top-dose activity change, negative = less growth; 360,000 tested, 0.21% active; AID 651644, 2012; active = well fitted falling curve with a large enough effect; inconclusive = small, poorly fitted or top-dose-only effect; inactive = no such curve, though single readings can be large or run the other way;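 note: % is set by controls: 0 for no effect and ±100 for the full control effect; nearly all actives have a fitted effect of over 50% in size; the assay follows cell death caused by Vpr and the record does not say whether a fall means rescue or toxicity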
#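 Fission yeast strain RE007, carrying one chromosomally integrated HIV-1 vpr copy, was seeded at OD 0.01 in PMG+AL medium with 23 nL pinned compound. After 24 h at 30 °C and 99% humidity, viability was read by BacTiter-Glo luminescence.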
# 2A StopGo = High Throughput Screening for Foot and Mouth Disease Virus Antivirals. human cells with a luciferase reporter of 2A StopGo recoding; control for the full effect not named in the record. Potency, µM (top dose mostly 57.9 µM), inactives show top-dose signal change, negative = less light. 410,000 tested, 1.2% active. AID 1159524, 2015; active = well fitted falling curve with a large enough effect; inconclusive = small, poorly fitted or top-dose-only effect; inactive = no such curve, though single readings can be large or run the other way; tested in HEK293T cells; note: % is set by controls: 0 for no effect and ±100 for the full control effect; nearly all actives have a fitted effect of over 45% in size; luciferase light after 4 h
# Cruzain noTriton = qHTS Assay for Promiscuous and Specific Inhibitors of Cruzain (without detergent); Potency, µM, for inactives: max response, negative = inhibition, most hits filed as inhibitors; Cruzipain (Trypanosoma cruzi), P25779; 200,000 tested, 2.3% active; purified cruzain, Z-FR-AMC fluorescence, no detergent;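 note: plate controls were enzyme without inhibitor for no effect and buffer without enzyme for full effect; nearly all actives have a fitted effect of over 40% in size; top concentration of the series not given in the record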
# Target sequence (P25779 123-467 limits assumed): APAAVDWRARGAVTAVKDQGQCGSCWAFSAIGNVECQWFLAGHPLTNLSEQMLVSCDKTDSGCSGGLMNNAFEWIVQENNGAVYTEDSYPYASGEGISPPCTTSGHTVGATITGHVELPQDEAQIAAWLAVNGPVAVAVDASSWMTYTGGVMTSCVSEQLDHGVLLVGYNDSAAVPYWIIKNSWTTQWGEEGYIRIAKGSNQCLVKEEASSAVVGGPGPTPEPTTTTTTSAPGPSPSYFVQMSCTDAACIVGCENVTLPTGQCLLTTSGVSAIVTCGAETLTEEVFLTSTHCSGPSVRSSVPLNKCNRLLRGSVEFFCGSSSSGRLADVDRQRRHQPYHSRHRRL
#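 Detergent-free condition (0.00005% Triton X-100) in acetate buffer pH 5.5 with DTT. 1.5 nM enzyme and compound were pre-mixed 15 min, then 2 uM Z-FR-AMC substrate added; reaction progress from fluorescence change between first and third reads (60 s).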
# SARS PLP yeast = qHTS of Yeast-based Assay for SARS-CoV PLP. S. cerevisiae expressing SARS-CoV PLpro, growth rescue; control for the full effect not named in the record. Potency, µM (doses to about 32.9 µM), for the others: at the top dose activity, positive = growth rescue. 330,000 tested, 0.19% active; active means well fitted rising curve with a large enough effect; inconclusive means small, poorly fitted or top-dose-only effect; inactive means no such curve, though single readings can be large or run the other way; note: 0% is about no effect; nearly all actives have a fitted effect of over 55% in size; growth read by luminescence after 48 h
# LASV entry inh = qHTS for Inhibitors of binding or entry into cells for Lassa Virus; Lassa virus pseudotype entry inhibition, cell reporter; control for the full effect not named in the record; Potency, µM (top dose mostly 37.9 µM), for the others: at the highest dose activity change, negative = inhibition, most hits filed as inhibitors; 300,000 tested, 1.2% active; active means well fitted inhibition curve with a large enough effect; inconclusive means small, poorly fitted or top-dose-only effect, or effect the other way; inactive means flat fitted curve, though single readings scatter; tested in HEK293 cells; note: % is set by controls: 0 for no effect and ±100 for the full control effect; nearly all actives have a fitted effect of over 50% in size; luciferase read-out
# Cruzain Triton = qHTS Assay for Promiscuous and Specific Inhibitors of Cruzain (with detergent); Cruzipain (Trypanosoma cruzi), P25779; purified cruzain, Z-FR-AMC fluorescence, 0.01% Triton; Potency, µM, for the others: max response, negative = inhibition, hits mostly inhibitors; 200,000 tested, 0.43% active;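 note: plate controls were neutral wells for no effect and buffer without enzyme for full effect; nearly all actives have a fitted effect of over 40% in size; top concentration of the series not given in the record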
#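 15 min RT preincubation of 1.5 nM cruzain with compound, then 2 uM Z-FR-AMC added; kinetic AMC fluorescence, 60 s delta. Triton X-100 0.01%, pH 5.5.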
# NS1 function inh = qHTS Assay for Inhibitors of Influenza NS1 Protein Function | S. cerevisiae slowed by influenza A NS1, growth recovery by OD600 | Potency, µM (top dose mostly 46.1 µM), for the others: top-dose activity, positive = more growth | 270,000 tested, 0.4% active | AID 2326, 2010; active means well fitted rising curve with a large enough effect; inconclusive means small, poorly fitted or top-dose-only effect; inactive means no such curve, though single readings can be large or run the other way; note: nearly all actives have a fitted effect of over 50% in size
#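 In this qHTS, NS1 from influenza A is expressed in budding yeast, where it slows growth. Cells are switched from glucose to 2% galactose medium (pH 6.0, -URA), treated with compound, and growth recovery is read at OD600.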
# Numbers without * were called inactive; ? = inconclusive; / = no result given; & = joins results of further samples; [ ] = another dose, or the depositor's remark. Unless noted, calls come from the whole dose curve; as a rule, active = well fitted curve in the direction sought with a large enough effect; inconclusive = small, poorly fitted or top-dose-only effect, or another doubt; inactive = no such curve, though single readings can be large; an effect the other way counts as inactive or inconclusive. Potency is the fitted concentration of half-maximal effect. Compounds as they come. Share with any hit: about 4.7%.
SMILES,Marburg entry inh,RE007 growth inh,2A StopGo,Cruzain noTriton,SARS PLP yeast,LASV entry inh,Cruzain Triton,NS1 function inh
COc1ccc(OC)c2sc(NC(=O)c3ccc(Cl)s3)nc12,/,-1.0%,0.0%,-6.6%,2.8%,/,4.7%,6.6%
CCSc1nnc(NC(=O)c2cc(=O)c3cc(C)c(C)cc3o2)s1,-11.3%[46.1 µM],/,-2.9%,-5.9%,/,0.7%[46.1 µM],-1.8%,/
COc1ccccc1NC(=S)N(CCCN1CCOCC1)Cc1cccs1,?,-8.8%,9.4%,/,3.3%,-14.8%,/,/
Cc1cccc(-n2c(N)cc(=O)[nH]c2=S)c1C,?,5.8%,-7.8%,-7.1%,-2.5%,2.5%,-1.6%,3.7%
CCOc1ccc(NC(=O)[C@H](Cc2ccccc2)N2Cc3ccccc3C2=O)cc1,-12.8%[46.1 µM],/,-1.4%,0.4%,/,1.0%[46.1 µM],-1.7%,/
CC(=O)c1cc(-c2ccccc2)n(CC(=O)N2CCC(N3CCCCC3)CC2)c1C,?,-8.1%,25.9%,-6.6%,-1.8%,20.3%,-1.3%,-1.3%
CCN(CC)CCCNC(=O)c1ccccc1NC(=O)C1=CSCCO1,/,1.7%,-29.4%,/,-0.7%,/,/,-0.5%
O=C(Cn1cnc2sc3c(c2c1=O)CCCC3)NCCCC(=O)N1CCC2(CC1)OCCO2,8.4%,15.9%,14.9%,-0.3%,20.1%,0.1%,0.3%,-3.1%
Cc1cccc(N=Nc2cnc(N)s2)c1,-18.0%,7.7%,50.7%[activator],/,0.0%,11.1%,/,-6.9%
Cc1cccc(CN2C(=O)c3ccccc3Sc3ccc(C(=O)NCCN4CCOCC4)cc32)c1,?,-5.2%,-13.9%,/,2.0%,?,/,/
O=C(CCCn1c(=S)[nH]c2ccccc2c1=O)NC1CCCCC1,10.7%,9.2%[3.69 µM],-15.7%,-0.1%,-8.8%,11.8%,1.0%,8.4%
COC(=O)c1ccc(NC(=O)c2nn(C)c3c2COc2ccccc2-3)cc1,?,/,?,-20.5%,/,?,-6.5%,/
COC(=O)c1cccc(N2C(=O)C3C4C=CC(CC4)C3C2=O)c1 (stereo not drawn),/,-7.2%,-15.5%,/,0.1%,/,/,2.6%
O=S(=O)(NCc1ccc2c(c1)OCO2)c1ccc(F)cc1,-22.4%,22.2%,31.1%[activator],/,9.5%,5.5%,/,12.8%
COc1ccc(C(C)(C)NC(=O)C2CCC(=O)N(C3CC3)C2)cc1OC (stereo not drawn),19.7%,0.2%,33.0%[activator],/,7.2%,-3.1%,/,0.4%
COc1ccc(OC)c(NC(=O)c2cccc3c2C(=O)N(C2CCCCC2)C3)c1,7.3%&7.3%[46.1 µM],2.9%,-13.2%&-29.6%,2.4%,2.5%,-1.1%[46.1 µM],-3.0%,20.7%
COC(=O)CC1C(=O)NCCN1C(=O)NC1CCCCC1 (stereo not drawn),?,-12.0%,17.5%,-4.2%,6.8%,0.0%,2.2%,7.4%
Cc1ccc(OCCN2CCCC2)cc1,/,-4.2%,-15.4%,/,-5.5%,/,/,-10.8%
NC1=NC(=O)CC(C(=O)NCCc2ccccc2)S1 (stereo not drawn),-7.1%,0.8%,-4.4%,-7.1%,-4.9%,13.0%,-6.7%,-3.2%
O=C1C2C3C=CC(CC3)C2C(=O)N1c1ccccc1F (stereo not drawn),1.7%[46.1 µM],0.5%,-14.0%,/,-1.4%,-4.2%[46.1 µM],/,-1.8%
COc1cccc(C(=O)Nc2c3c(nn2-c2ccccc2C)CS(=O)C3)c1OC (stereo not drawn),-4.5%,-1.5%,-1.7%,8.6%,-5.1%,12.4%,8.4%,-4.1%
CC(C)(C)OC(=O)N1Cc2ccccc2C[C@H]1C(=O)O,18.9%,17.4%,-9.9%,6.8%,0.1%,29.2%,6.0%,-2.9%
CCOc1ccc(NC(=O)N2CCOc3ccccc32)cc1,/,/,28.4%,15.8%,/,10.3%[46.1 µM],-3.8%,/
CC(=O)c1cccc(NC(=O)CN2C(=O)NC(C)(C)C2=O)c1,?,11.8%,4.9%,/,-4.1%,27.9%,/,/
CC(=O)OCC1=C(C(=O)[O-])N2C(=O)[C@@H](NC(=O)CCC[C@@H](N)C(=O)[O-])[C@H]2SC1.[Zn+2],?,/,/,-3.7%,/,/,-5.8%,-0.3%

# Entries from the list above that contain a thiophene ring, fused or not:
SMILES,Marburg entry inh,RE007 growth inh,2A StopGo,Cruzain noTriton,SARS PLP yeast,LASV entry inh,Cruzain Triton,NS1 function inh
COc1ccc(OC)c2sc(NC(=O)c3ccc(Cl)s3)nc12,/,-1.0%,0.0%,-6.6%,2.8%,/,4.7%,6.6%
COc1ccccc1NC(=S)N(CCCN1CCOCC1)Cc1cccs1,?,-8.8%,9.4%,/,3.3%,-14.8%,/,/
O=C(Cn1cnc2sc3c(c2c1=O)CCCC3)NCCCC(=O)N1CCC2(CC1)OCCO2,8.4%,15.9%,14.9%,-0.3%,20.1%,0.1%,0.3%,-3.1%

# Next section.
SMILES,Marburg entry inh,RE007 growth inh,2A StopGo,Cruzain noTriton,SARS PLP yeast,LASV entry inh,Cruzain Triton,NS1 function inh
CCOC(=O)c1c(NC(=O)CSc2nnc(C)s2)sc2c1CCCCC2,?,3.3%,?,26.9%,-9.0%,10.6%,-4.3%,-1.3%
Cc1cc(NCCCN)nc(-c2ccccc2O)n1,-1.0%,-16.2%,24.3%,-6.1%,-0.1%,?,-2.5%,-5.6%
Fc1ccc(-n2cc(-c3ccccc3)c3c(NCCc4ccccc4)ncnc32)cc1,/,/,-13.0%,-17.5%,/,-14.3%[46.1 µM],0.3%,/
NS(=O)(=O)c1cccc(NC(=O)c2ccc(S(=O)(=O)N3CCCCCC3)cc2)c1,-5.3%,2.2%,-11.7%,/,-0.8%,-6.4%,/,/
Cc1nc(NC(=O)c2ccc(Br)o2)ccc1Br,/,-15.4%,28.2%,/,-11.9%,/,/,-34.6%
O=C(NCCCN1CCOCC1)c1cccc(S(=O)(=O)N2CCN(c3ccccc3)CC2)c1,16.4%,-22.6%,-16.9%,/,-2.8%,1.2%,/,/
CCC(C)c1ccc(NC(=S)Nc2ccc(OC)cc2)cc1 (stereo not drawn),8.8%,-5.8%,21.1%,-5.6%,-50.2%,3.2%,-3.1%,-14.7%
Cc1cc(C)c(C(=O)CC2(O)C(=O)Nc3ccccc32)cc1C (stereo not drawn),2.4%,10.5%,-13.6%,1.7%,16.9%,10.9%,-0.9%,-2.5%
CCCCN1C(=O)C(O)(c2c(C)[nH]c3ccccc23)c2ccccc21 (stereo not drawn),-3.8%[46.1 µM],/,-18.3%,-1.3%,/,-9.4%[46.1 µM],-7.8%,/
COc1ccc(CNC(=O)c2cc3c(-c4ccccc4F)nn(C)c3s2)cc1,-0.9%[46.1 µM],/,?,-1.4%,/,?,-3.7%,/
CC1CCC(NS(=O)(=O)c2ccc(N3CCCC3=O)cc2)CC1 (stereo not drawn),/,15.3%,12.5%,/,1.2%,/,/,-0.8%
O=C(CSc1ccc(Cl)cc1)Nc1ccccc1N1CCN(C(=O)c2ccccc2)CC1,?,-1.5%,12.6µM*,-0.4%,11.5%,15.8µM*,4.7%,-2.3%
O=C(NCCOc1ccccc1-c1ccccc1)c1ccco1,-17.9%&-17.9%[46.1 µM],25.0%,-2.0%,/,-2.0%,-18.8%,/,-7.4%
C=CCNC(=S)NNC(=O)CC12CC3CC(CC(C3)C1)C2,12.8%[14.2 µM],11.5%,2.1%,/,-2.3%,-0.4%,/,4.3%
Cc1cc(CN(C)C(=O)CC2C(=O)NCCN2Cc2ccc(F)c(F)c2)on1 (stereo not drawn),-12.2%[46.1 µM],9.7%,-12.1%,/,0.9%,10.0%[46.1 µM],/,0.0%
Nc1ccc(C(=O)N/N=C\c2ccc(OC(=O)c3ccccc3Cl)cc2)cc1,/,-9.3%,14.1%,/,5.1%,/,/,-19.9%
Cc1ccc2nc(SCC(=O)Nc3cc(C)on3)nc(=O)n2c1,4.4%[46.1 µM],5.8%,-11.3%,/,1.3%,0.1%,/,/
Cc1ccc(-n2c(SCC(N)=O)nnc2-c2ccc(S(=O)(=O)N3CCCCC3)cc2)c(C)c1,-1.4%,6.4%,?,?,20.8%,?,-3.4%,5.5%
O=C(Cc1ccsc1)N1CCN(S(=O)(=O)c2ccccc2F)CC1,16.6%,1.8%,-16.0%,/,-2.7%,-2.3%,/,/
O=C(CN1CCC(NC(=O)c2ccc(F)cc2)CC1)NCc1ccccc1F,?,12.3%,-12.2%,-6.0%,7.2%,-2.7%,3.5%,-1.1%
Nc1ccc(C(=O)N2CCN(S(=O)(=O)c3ccc(Cl)cc3)CC2)cc1[N+](=O)[O-],?,20.4%,24.2%,/,3.3%,?,/,/
Cc1nc2ccccc2c2oc(C(=O)NCCCN3CC(C)CC(C)C3)cc12 (stereo not drawn),/,-1.0%,-10.8%,/,5.0%,/,/,-5.4%
CCCc1cc2c(cc1NS(=O)(=O)c1ccc(CCNC(C)=O)cc1)OCO2,-31.3%,0.4%,28.7%,13.1%,-1.7%,1.1%,-2.0%,-11.4%
Cc1cc(C)n2nc(CNS(=O)(=O)c3ccccc3)nc2n1,-18.0%[46.1 µM],/,2.5%,0.9%,/,?,0.6%,/
CN(N)C(=S)Nc1ccc(Cl)cc1,-4.5%,-20.2%,11.0%,/,-0.9%,6.4%,/,/
O=C1c2ccccc2C2(c3ccc(Cl)cc3)NCCN12 (stereo not drawn),10.8%,3.2%,-23.3%,4.6%,2.1%,1.9%,2.2%,-1.3%
Cc1ccccc1Cn1cc(CCC(=O)NCc2cccc(Br)c2)c2ccccc21,/,/,-0.9%,-11.3%,/,-0.1%[46.1 µM],4.8%,/

# High-throughput results from PubChem BioAssay.
